RanGTP-Impb inh – inhibitors of RanGTP-importin-beta interaction, primary screen, biochemical, FRET, CFP-Ran, YFP-importin-beta, homogeneous | inhibition, % (no concentration beside the values) | cell-free CFP-Ran/YFP-importin-beta FRET ratio | 300,000 tested, 1.1% active;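 active = most replicates above 15%; inconclusive = exactly half above 15%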;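 also: 0% = DMSO wells and 100% = Ran loaded with GDP instead of GTP; wells of about 40 µL received 100 nL stock; the first replicate is given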
Calb FLC – affects C. albicans growth with fluconazole. C. albicans CaCi-2 (fluconazole-resistant clinical isolate) + fluconazole, Alamar Blue growth, 48 h. growth inhibition, % (test concentration not listed). 300,000 tested, 0.57% active;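 active = most replicates above 75%; inconclusive = exactly half above 75%; inactive = most below 75%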;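 also: all wells also contain fluconazole at 8 µg/ml as a sub-toxic cotreatment; 0% = median of DMSO wells and 100% = median of geldanamycin control wells; wells of about 8 µL received 7.5 nL stock; the first replicate is given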
T cruzi inh – T. cruzi replication inhibition; 300,000 tested, 1.4% active; inhibition, % (test concentration not listed); T. cruzi beta-gal in NIH3T3, luminescence, 90 h;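 active = mean inhibition across valid replicates above about 55%, limit read from the data; inconclusive = mean below that limit but half or more replicates reach it; inactive = mean below it, under half of replicates reach it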;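 also: signal also drops with host cell toxicity which is not excluded here; 0% = plate median of DMSO wells and 100% = zero luminescence signal; higher percent means less beta-gal luminescence so fewer parasites; stock transfer was 50 nL into about 50 µL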
Beta cell apopt – beta cell apoptosis inhibition; 300,000 tested, 0.8% active; AID 435005; protection from apoptosis, % (concentration not given with the values); INS-1E cytokine-induced death, ATP luminescence, 48 h; percent of positive-control rescue, neutral wells zero;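 active = all replicates at 75% or more, or half of them and the mean; inconclusive = half reach 75% but not the mean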;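 also: 0% = cytokine-treated negative control wells and 100% = positive control rescue; higher means more ATP so stronger rescue from cytokine killing; wells of about 40 µL received 100 nL stock; the first replicate is given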
Vif A3G – inhibitors of Vif binding to APOBEC3G peptide, primary screen, biochemical, TR-FRET, GST-Vif 1-94, biotin-A3G peptide, dose response retest (AID 1117319). inhibition, %; hits with a dose series show IC50 in µM. 260,000 tested, 0.57% active. TR-FRET GST-Vif / biotin-A3G peptide binding; higher % means a stronger effect; test concentration not given here; strong numbers were not always called active;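 active = above the screen mean plus three standard deviations and confirmed in dose response; inconclusive = results disagree or hit not tested in dose response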;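 also: Vif residues 1-94 fused to GST binding biotinylated APOBEC3G peptide 110-148; 0% = full assay without inhibitor and 100% = GST in place of GST-Vif; retest series ran down from 100 µM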
Bfl-1 A1 inh – inhibitors of the anti-apoptotic protein A1, read as caspase activation; 330,000 tested, 0.066% active; caspase activation, % (test concentration not listed); AID 2462; MEF A1-2A-BIM cells, Caspase-Glo 3/7 luminescence, 3 h; percent of clofoctol response, vehicle zero;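 active = over half of replicate activation scores above 10%, or exactly half above 10 with the replicate mean above 10; inconclusive = replicate mean below 10 yet half the replicates above 10; inactive = over half of replicates below 10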;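 also: wells of about 30 µL received 50 nL stock; many hits fall short of the cut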
AF4-AF9 inh – MLL-AF4/AF9 protein interaction inhibition. P42568. AlphaScreen, biotin-AF4 peptide binding to FLAG-AF9. inhibition, % at 10 µM. 350,000 tested, 0.47% active. AID 651704;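 active = every replicate reaching a set inhibition limit, whatever the replicate mean, cut at about 25% in these data; inconclusive = mean inhibition reaches that limit but some replicates miss it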;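 also: 0% = plate neutral control median and 100% = total signal loss; the record names both 10 and 1 µM as test concentration; the first replicate is given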
Target sequence (P42568 whole entry, looked up): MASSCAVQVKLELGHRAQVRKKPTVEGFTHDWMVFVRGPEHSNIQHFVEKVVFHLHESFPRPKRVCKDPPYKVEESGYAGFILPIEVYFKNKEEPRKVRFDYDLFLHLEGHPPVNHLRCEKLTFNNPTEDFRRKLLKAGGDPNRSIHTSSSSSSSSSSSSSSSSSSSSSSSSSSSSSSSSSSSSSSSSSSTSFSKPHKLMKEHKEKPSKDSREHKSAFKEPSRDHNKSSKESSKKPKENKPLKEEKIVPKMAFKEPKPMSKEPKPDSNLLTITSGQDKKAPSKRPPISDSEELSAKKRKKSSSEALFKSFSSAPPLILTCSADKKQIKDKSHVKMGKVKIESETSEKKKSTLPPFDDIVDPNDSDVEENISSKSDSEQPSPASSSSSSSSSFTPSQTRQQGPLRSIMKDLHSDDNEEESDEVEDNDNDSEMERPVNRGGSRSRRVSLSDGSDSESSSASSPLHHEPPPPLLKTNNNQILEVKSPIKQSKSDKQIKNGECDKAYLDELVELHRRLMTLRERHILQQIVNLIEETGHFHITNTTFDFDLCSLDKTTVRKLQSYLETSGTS
Ecoli rRNA inh – selective bacterial rRNA inhibition in E. coli. E. coli WT GFP vs humanized-ribosome RFP mutants, fluorescence, 24 h; stronger effect = lower value; DMSO median 0, no signal -100. GFP signal change (wild-type ribosome), % (no concentration beside the values). 350,000 tested, 1.6% active. AID 720706;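 active = significant combined selectivity score with lowered wild-type GFP, culture density cut under 30%, mutant RFP and density less affected; inactive = any of these conditions unmet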; also: one replicate is shown; some compounds called inactive have numbers as strong as hits
Ecoli rRNA inh OD600 – also measured in Ecoli rRNA inh; calls as there; OD600 change, %; measured here: OD600 growth;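 optical density of the mix in the first replicate; 0 = DMSO median and -100 = no signal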
Ecoli rRNA inh RFP – second read-out of Ecoli rRNA inh, no call of its own (marks repeat the call); RFP signal change, %; measured here: RFP humanized mutant strains;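 first replicate; 0 = DMSO median and -100 = no signal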
* hit, by the source's call; ? = inconclusive; nt = no result given. An excerpt; count on the stated rates, not on these rows.

Below each SMILES – RanGTP-Impb inh	Vif A3G	AF4-AF9 inh	Calb FLC	Beta cell apopt	Ecoli rRNA inh RFP	Bfl-1 A1 inh	Ecoli rRNA inh OD600	T cruzi inh	Ecoli rRNA inh
O=C(Nc1nnc(S(=O)(=O)N2CCOCC2)s1)c1ccccc1Br
    0.8	nt	-1.3	3	-3	-8.1	0.1	-22	5	-2
CN(C(=O)COC(=O)CSc1ccc(C(N)=O)cc1[N+](=O)[O-])C1CCS(=O)(=O)C1 (stereo unspecified)
    1.8	-6%	0.4	0	-3	0.2	-0.4	9	-9	13
CC(=O)c1cccc(Nc2nc3ccccc3n3cnnc23)c1
    4.4	nt	-2.1	-4	5	-2.0	0.8	-1	7	4
COc1nnc(-c2ccc(N3CCOCC3)c(NC(=O)c3ccccc3)c2)c2ccccc12
    -2.6	-4%	nt	26	9	nt	-0.2	nt	16	nt
Cc1oc(-c2cccc(Cl)c2)nc1CSc1nc2c(c(=O)[nH]1)CCC2
    0.4	nt	nt	-2	-9	nt	0.2	nt	-9	nt
COc1ccc2c(-c3cnc(N4CCOCC4)nc3)c(-c3ccc(S(C)(=O)=O)cc3)sc2c1
    nt	nt	-0.3	nt	-13	-7.1	-1.8	8	nt	5
C=CCc1cc(C)ccc1OCCCn1ccnc1
    6.5	1%	2.4	-21	nt	-5.2	0.1	-39	37	-22
Cc1nc(SCC(=O)N2CCN(c3ccccc3)CC2)c2oc3ccccc3c2n1
    3.3	-15%	nt	0	4	nt	-0.5	nt	22	nt
Cc1ccc(S(=O)(=O)CC(=O)N2CCN(c3ccccc3F)CC2)cc1
    2.8	nt	-1.6	10	-5	-0.9	-0.1	-7	-4	6
O=c1[nH]c2ccc(S(=O)(=O)NCc3ccccc3)cc2[nH]1
    0.1	-13%	-2.1	-4	-7	-4.2	1.7	-26	-8	-22
O=C(Nc1ccc(F)cc1F)N1CCCN(CCOc2ccccc2)CC1
    -0.5	-4%	-1.3	-1	3	0.6	0.1	4	5	13
O=C(COc1ccc2ccc(=O)oc2c1)Nc1ccc(CN2CCOCC2)cc1
    -0.1	-1%	0.7	10	7	-3.4	-0.1	-6	-1	0
O=C(Nc1ccc2nc(SCc3ccc(Cl)cc3)sc2c1)c1ccccc1C(=O)N1CCOCC1
    -5.0	-5%	nt	6	-5	nt	0.2	nt	18	nt
O=C(c1ccco1)N1CCN(/C(=N/S(=O)(=O)c2cccs2)c2ccccc2Cl)CC1
    3.4	28%	nt	?	-3	nt	-1.2	nt	-10	nt
COc1cccc(N2CC(C(=O)Nc3nnc(SCc4cccnc4)s3)CC2=O)c1 (stereo unspecified)
    0.7	nt	-5.1	3	2	-5.1	1.2	-35	-5	-10
Cc1ccc(Nc2nc3ccccc3s2)c(C)c1
    0.9	nt	nt	-49	2	nt	-6.5	nt	42	nt
CCC(=O)Nc1c(C(=O)Nc2cccc(OC)c2)oc2ccccc12
    5.7	-2%	nt	-16	0	nt	-0.4	nt	-5	nt
COC(=O)c1cc(=O)cc(C(=O)OC)o1
    0.4	nt	nt	-3	-3	nt	0.1	nt	-7	nt
Cc1cc(C)nc(Nc2ncc(O)n2-c2ccc(Br)cc2)n1
    0.5	4%	-0.3	14	-2	1.7	-0.3	14	-2	10
CCC(=O)Nc1ccc(C(=O)Nc2cccnc2)cc1
    -2.1	2%	-4.1	-10	1	-6.7	0.2	-2	-5	12
CC(C)(C)OC(=O)C[C@H]1C/C=C\C[C@H](CC(=O)N[C@H](CO)Cc2ccccc2)C(=O)N[C@H](Cc2ccccc2)COC1=O
    nt	5%	-0.7	nt	-1	0.0	0.1	15	nt	4
N#CCc1ccc(OC(=O)c2cnccc2C(F)(F)F)cc1
    0.2	-6%	0.0	-1	nt	0.2	1.4	7	3	5
Cc1nnc(NC(=O)c2ccccc2NC(=O)c2ccccc2)s1
    -0.6	-1%	-0.8	9	20	2.3	-0.7	1	-41	12
CCN(C(=O)COC(=O)c1cc(-c2cccc3ccccc23)nc2ccccc12)C1CCS(=O)(=O)C1 (stereo unspecified)
    -2.3	16%	nt	30	-2	nt	0.4	nt	-30	nt
CCOc1ccc(C2CC(c3ccccc3C)n3ncnc3N2)cc1 (stereo unspecified)
    3.5	-2%	-3.0	7	-6	-1.4	0.9	-14	13	2
CCOc1c2ccccc2nn1CCOC
    nt	nt	0.5	nt	-7	3.3	0.6	15	nt	15
S=c1[nH]nc(-c2ccc(Cl)cc2)n1/N=C/c1cccs1
    7.2	32%	nt	0	2	0.4	0.5	10	-1	0
COc1ccccc1C(=O)Nc1nc2nc(-c3ccccc3)cc(=O)n2[nH]1
    -0.2	6%	nt	-9	1	nt	1.9	nt	-8	nt
N/C(=N\OC(=O)c1cccc([N+](=O)[O-])c1)c1ccccn1
    3.1	2%	-2.5	9	7	0.9	-5.4	13	-12	9
O=C(Cc1cccs1)NC1CCCC1
    -4.0	nt	-0.2	3	2	0.8	1.6	14	-13	12
CCn1c(SCC(=O)N2CCCc3ccccc32)nc2c1c(=O)n(C)c(=O)n2C
    -3.9	21%	nt	-12	-4	nt	0.1	nt	25	nt
CS(=O)(=O)c1ccc(NC(=O)CCN2C(=O)NC3(CCCC3)C2=O)cc1
    nt	-3%	-25	nt	-2	-2.0	-1.5	18	nt	4
Cc1ccc2nc(-c3cccnc3)c(Nc3ccccc3C)n2c1
    -4.6	0%	1.4	13	0	-5.7	0.1	1	15	1
COc1ccc(C2=NN(C(=O)CCC(=O)O)C(c3ccc([N+](=O)[O-])cc3)C2)cc1 (stereo unspecified)
    0.6	-8%	-0.8	-4	-12	-0.6	-0.7	8	-15	7
CC(OC(=O)CN1C(=O)NC2(CCCCC2C)C1=O)c1ccccc1 (stereo unspecified)
    nt	nt	6.9	nt	-8	-3.4	0.6	-18	nt	-15
Cc1ccc(C(=O)C(C)OC(=O)Cc2c[nH]c3ccccc23)cc1 (stereo unspecified)
    2.5	7%	0.0	8	-14	0.3	-0.9	-16	0	-15
COc1ccc(C(=O)N2CCOC2CNC(=O)C(=O)NCCc2ccc(OC)c(OC)c2)cc1 (stereo unspecified)
    4.6	nt	-0.5	-1	-6	-0.5	-0.3	12	-16	7
O=C(CSc1nnc(SCc2ccccc2)s1)N/N=C/C=C/c1ccco1
    1.6	nt	6.0	-5	-8	15	0.1	12	-3	2
CC(C)(C)OC(=O)N1CCC[C@H]1c1nnc(SC/C=C/c2ccccc2)o1
    -0.1	75%	nt	0	-8	nt	-0.3	nt	19	nt
COc1ccc(NC(=O)CN(C)CC(=O)Nc2ccc(N3CCOCC3)cc2)c([N+](=O)[O-])c1
    ?	-1%	5.1	-27	-3	0.7	0.5	3	-3	-3
COc1cc(C(C)=O)ccc1OCCN1CCC(Cc2ccccc2)CC1
    -1.1	-17%	5.6	-46	6	1.0	-0.2	6	34	-7
COc1cccc(OC)c1OCCNC(C)(C)C
    0.7	?	nt	-8	-4	nt	0.1	nt	0	nt
CCSc1nnc(NC(=O)c2cc(C)nc3ccccc23)s1
    4.2	-3%	nt	-3	-2	nt	1.7	nt	-1	nt
COC(=O)CN(c1ccccc1F)S(=O)(=O)c1ccccc1
    -5.7	20%	nt	20	0	nt	-0.7	nt	-2	nt
CCN(CC1COc2ccccc2O1)C(=S)NCCCN(C)C (stereo unspecified)
    -2.3	14%	2.6	?	5	1.4	0.7	9	29	12
COc1cccc(C(=O)c2c[nH]c(C(=O)NCc3cccnc3)c2)c1
    4.4	-10%	-2.8	19	22	3.5*	-0.2	4.6*	-26	-29*
O=C(NNc1c(F)c(F)cc(F)c1F)C1CCN(S(=O)(=O)c2ccccc2F)CC1
    nt	nt	-1.2	nt	3	-0.5	0.5	16	nt	6
O=C(O)/C=C/C(=O)Nc1ccc(OC(F)(F)F)cc1Br
    -2.6	nt	nt	0	-1	4.9	-0.1	7	-2	15
COc1ccc(CCNC(=O)C2CCC(C(C)(C)C)CC2)cc1OC (stereo unspecified)
    -0.6	nt	-2.6	-37	-2	-6.5	0.0	-38	16	-15
CCCCN(C(=O)c1ccc(C)cc1)c1c(N)n(CCC)c(=O)[nH]c1=O
    -3.1	nt	-0.1	12	2	-1.0	-1.9	11	7	13
O=C(/C=C/c1c(F)cccc1Cl)NCCCN1CCOCC1
    -1.0	2%	-4.1	7	-3	2.8	1.9	8	4	8
CNC(=O)c1[nH]cnc1C(=O)Nc1ccccc1
    nt	nt	-1.2	nt	2	-1.4	0.6	8	nt	4
O=C(CNC(=O)Cc1cccc2ccccc12)NCc1ccc(F)cc1
    -0.2	nt	0.5	-1	-5	0.0	0.6	3	-6	-3
Nc1cc(N)nc(SCCc2ccccc2)n1
    3.7	nt	1.0	-2	-2	-1.4	0.1	-16	-12	-3
O=C(CCC1CCCC1)N1CCN(C(=O)c2cccnc2)CC1
    -2.1	10%	nt	-11	-3	nt	2.3	nt	-9	nt
O=C1CCC(=O)N1CCCCCc1nc(-c2ccccc2)no1
    -0.3	-4%	nt	5	4	nt	1.2	nt	11	nt
COCCn1c(N)c(N(Cc2ccccc2)C(=O)C2CCCCC2)c(=O)[nH]c1=O
    -0.9	71%	-1.8	-1	11	-0.9	-0.1	9	-5	13
COc1ccc(N(C)C(=O)c2cc3c(s2)-c2ccccc2S(=O)(=O)C3)cc1
    6.4	7%	9.0	-1	1	-0.3	0.4	-15	4	-20
NC(=O)C1CCN(c2ccc(C(F)(F)F)cn2)CC1
    3.9	8%	-0.5	8	0	-0.5	1.1	2	-10	13
CC1C(Br)C(=O)NC(=O)N1Cc1ccccc1 (stereo unspecified)
    0.4	-6%	-0.1	-2	-1	-2.5	-0.7	9	-12	12

(next part)
Below each SMILES – RanGTP-Impb inh	Vif A3G	AF4-AF9 inh	Calb FLC	Beta cell apopt	Ecoli rRNA inh RFP	Bfl-1 A1 inh	Ecoli rRNA inh OD600	T cruzi inh	Ecoli rRNA inh
CN(CC(=O)Nc1ccc(OC(F)(F)F)cc1)C(=O)Cc1ccc2c(c1)CCC2
    nt	-3%	-5.8	nt	-3	1.9	0.5	0	nt	7
COc1ccccc1/C=C(/C(=O)OCC(=O)Nc1ccc(N(C)C)cc1)c1ccccc1
    -1.4	nt	nt	2	-9	nt	-0.6	nt	15	nt
NCCCC[C@@H]1NC(=O)[C@H](CCC(=O)O)NC(=O)c2cc([N+](=O)[O-])cc(I)c2SC[C@@H](C(=O)NCC(N)=O)NC1=O
    1.1	-6%	3.4	4	-8	-1.7	0.2	2	-1	7
COC(=O)C1=C(C)Nc2c(c(=O)n(C)c(=O)n2C)C1c1cccnc1 (stereo unspecified)
    2.8	-8%	nt	-3	-13	nt	-0.2	nt	-14	nt
CC1CCCC(NC(=O)COC(=O)COc2ccc(Br)cc2)C1C (stereo unspecified)
    nt	nt	-19	nt	0	-0.1	0.4	4	nt	4
CC(=O)n1cc([C@@H]2C=C(C(=O)N3CCOCC3)O[C@H](OCc3ccc(CO)cc3)C2)c2ccccc21
    -1.6	6%	2.2	2	-2	nt	0.7	nt	26	nt
